# Screening results: PubChem, ICCB-Longwood Screening Facility, Harvard Medical School
# Vaccinia pol inh: vaccinia E9 polymerase processive synthesis inhibitors, primary screen, biochemical, absorbance; AID 493162, 2011; actives 0.94% (n = 46,000); in vitro processive DNA synthesis, absorbance read-out; active compounds read low; some inactives read as strong as hits; Vaccinia virus DNA polymerase (E9) processive complex; normalized absorbance, % (no concentration beside the values);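 active = replicate mean up to 90% and picked by the depositor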;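 note: 100% = median of the test wells of a plate; 100 nL library stock went into each well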
# Active calls of the source: *.
SMILES,Vaccinia pol inh
CSc1nnc(-c2ccccc2Cl)o1,99
O=C(CCN1C(=O)/C(=C/c2ccccc2)SC1=S)OC1CCCCC1,88
Cc1ccc(CCCC(=O)O)cc1,100
O=C(c1cccn2c(=O)c3cc(Br)ccc3nc12)N1CCC2(CC1)OCCO2,100
O=C1NC2=C(C(=O)OC2)C(c2ccccc2)N1 (centres undefined),100
O=C(O)CSCC(=O)Nc1ccc(Cl)cc1Cl,117
CCc1nnc(SCC(=O)N2c3ccccc3Sc3ccccc32)n1N,98
COc1ccc(OCCC(=O)NN)cc1,102
CCOC(=O)N1CCN(C(=O)/C(=C/c2ccccc2Cl)c2ccccc2)CC1,99
CCOC(=O)c1cn(C(=O)CCSc2ccc(OC)cc2)nc1N,105
N#CCN(CC#N)C(=O)c1ccc(C(=O)N(CC#N)CC#N)cc1,100
COc1cc(-c2nc3sc4c(c3c(=O)o2)CCCC4)cc(OC)c1OC,90
CSC1=NC2(CC(c3ccccc3)Oc3cc(O)ccc32)CC(C)(C)N1 (centres undefined),101
CCOc1ccc2oc(=O)cc(CN(Cc3ccco3)CC3CCCO3)c2c1 (centres undefined),93
CCOc1ccc2nc(NC(=O)c3ccc(C(C)(C)C)cc3)sc2c1,106
Cc1ccc(-n2c(=O)c3ccc(C(=O)NCc4ccco4)cc3n(Cc3ccccc3F)c2=O)cc1,101
O/N=C1/CC(O)(C(F)(F)F)Oc2ccccc21 (centres undefined),100
c1ccc(CNC2=NCCS2)cc1,99
COc1ccc2c(c1)CC/C(=C/c1ccco1)C2=O,84
Cc1nc2ccccn2c1-c1ccnn1C(=O)c1ccc(Cl)cc1,100
COc1cccc2cccc(/C=N/n3cnnc3)c12,86
O=C(CNC(=S)N(Cc1cccs1)C1CCCC1)NC1CCCc2ccccc21 (centres undefined),93
COC(=O)CCC1CCCC/C1=N/O (centres undefined),103
Nn1cnn2c(SCc3cccc(C(F)(F)F)c3)nnc12,91
Cc1ccc(/C=C/C(=O)N2CCCc3ccccc32)o1,93
SMILES,Vaccinia pol inh
CC(C)(C)c1ccc(C(=O)CC(C(=O)O)N2CCCCC2)cc1 (centres undefined),100
O=C1CC(C(=O)Nc2cccc3ccccc23)C2(CCCC2)O1 (centres undefined),96
CC(C)(C)c1ccc(-c2n[nH]c(S(C)(=O)=O)c2C#N)cc1,94
O=c1oc2cc(OCc3ccccc3F)ccc2c2c1CCC2,105
C=CCNc1nn(-c2nc3ccccc3s2)c2c1CCCC2,97
COc1ccc(-c2nnc3ccc(SCC(=O)N4CCCCC4)nn23)cc1,98
Cn1c(CN2CCCCC2)c(C#N)c2ccccc21,102
Cc1ccc(OC(C)(C)C(=O)Nc2ccc(Oc3ccc(F)cc3F)nc2)c2c1CCC2,103
CCOc1ccccc1/C=N\n1cnnc1,101
O=C1CCCCCC1CN1CCCCC1 (centres undefined),107
Cc1ccc(SCC(=O)N[C@@H]2C[C@H]3CC[C@@H]2C3)cc1,101
Cc1nnc2c(-c3ccccc3)nc3ccccc3n12,96
CCOc1ccc(NC(=O)c2ccc(S(=O)(=O)N3CCCC3)cc2)cc1,112
CCCOc1ccccc1N1C(=O)CC(Nc2ccc(C)cc2)C1=O (centres undefined),96
CCSc1nnc(-c2ccccc2NC(=O)CC)c(=O)[nH]1,101
CCN(CC)C(=O)CCc1nc(-c2cccc(OC)c2)no1,105
CNC(=O)CCc1cn(Cc2ccc(C)cc2)c2ccccc12,96
CC(C)N1C(=S)SC(C)(C)C1n1oc(=O)n(-c2cccc(Cl)c2)c1=O (centres undefined),101
CCOC(=O)CN1C(=O)S/C(=C\c2ccc(C(=O)O)cc2)C1=O,100
CCOC(=O)C1=C(C)N(C)C(C)=C(C(=O)OCC)C1c1ccc(C)s1,102
O=C(COC(=O)Cc1ccccc1)Nc1ncc(Cl)cc1Cl,95
O=C(/C=C/c1ccccc1)Nc1nnc(/N=C/c2ccc(Br)s2)s1,101
O=C1CC(=O)N(Cc2ccccc2)C(=O)N1,100
CCCN1CC=C2C(C#N)(C#N)C(N)=C(C#N)C(c3ccc(OCC(N)=O)cc3)C2(C)C1 (centres undefined),101
Nc1ccc(CN2CCCCCC2)cc1,93
SMILES,Vaccinia pol inh
CCOc1ccccc1C(=O)NCc1ccc2[nH]c(C)cc2c1,104
CCN(CC)S(=O)(=O)c1ccc(Cc2ccc(S(=O)(=O)N(CC)CC)cc2)cc1,101
Brc1ccc2ncnc(-c3ccccc3)c2c1,100
COc1ccc(C(O)(CCc2ccccc2)C(CN2CCCCC2)c2ccccc2)cc1 (centres undefined),91
COC(=O)C1=C(C)N(CC(C)C)C(=O)/C1=C\c1ccco1,100
COc1ccccc1N1CCN(S(=O)(=O)Cc2ccccc2)CC1,95
Cn1cnnc1SCc1cn2ccccc2n1,71
CC(NC(=O)/C=C/c1cccs1)C1CC2CCC1C2 (centres undefined),101
O/N=C/c1ccc[n+](C/C=C/c2ccccc2)c1,100
C=COC(=O)CSc1nc(C)cc(C)c1C#N,100
CC(C)(C)OC(=O)N1CCC(CNS(=O)(=O)c2cccc3cccnc23)CC1,109
Cn1c(C(=O)NCCc2ccc(Cl)cc2)cc2c(=O)n(C)c3ccccc3c21,100
O=C(O)CC(Cc1ccc(Cl)cc1)C(=O)NCc1ccccc1 (centres undefined),102
COc1cc(C2CC(=O)N(CC(=O)NCC3CCCO3)c3ccccc3S2)cc(OC)c1OC (centres undefined),99
O=C(CCC(=O)N1CCOc2ccccc21)Nc1ccccc1Cl,93
CC(C)CC(C(=O)Nc1cccc(C(F)(F)F)c1)N1C(=O)c2ccccc2C1=O (centres undefined),100
CCCC12CNCC(C)(CNC1)C2=O,99
Cc1cccc(OCCn2c(CNC(=O)c3ccccc3)nc3ccccc32)c1,93
CCNC(=O)C1Cc2ccccc2CN1S(=O)(=O)c1ccc(F)cc1 (centres undefined),96
CCOC(=O)c1c(C)oc2ccc(OCC)cc12,99
CC(C)C(NC(=O)COc1ccccc1)C(=O)O (centres undefined),102
COc1cc(C=NC2=NN(c3ccccc3)CC2)ccc1O,100
Cc1cc(C)n(S(=O)(=O)c2cccs2)n1,101
CC(C)CCN1C(=O)c2ccc(C34CC5CC(CC(C5)C3)C4)cc2C1=O,99
CCOC(=O)c1cc(C)n(C)c1C,105
SMILES,Vaccinia pol inh
Cc1onc(-c2ccccc2)c1C(=O)Nc1ccccc1,99
CCn1c(-c2ccco2)nc2ccccc21,97
Cc1cc(NC(=O)c2cc(=O)c3ccccc3o2)n(-c2ccccc2C)n1,102
Cc1ccc(/C=C/C(=O)NCC2CCCO2)o1 (centres undefined),89
CSc1ncc(Cl)c(C(=O)Nc2cc(C)ccc2C)n1,97
CCC(Sc1nc2cc3c(cc2c(=O)n1Cc1ccco1)OCO3)C(=O)Nc1ccccc1OC (centres undefined),98
O=C(NCCCCCCNC(=O)ON=C1CCCCC1)ON=C1CCCCC1,100
N#CC1(C(=O)O)CN(CCc2ccc(Cl)cc2)CN(CCc2ccc(Cl)cc2)C1,107
COc1ccccc1N=Cc1c(O)n(C)c(=O)c2ccccc12,92
COc1cc2c(cc1OC)C(C)N(C(=O)c1noc3c1COc1ccc(C)cc1-3)CC2 (centres undefined),99
Nc1oc(-c2ccccc2F)cc1C(=O)c1ccccc1,95
COc1ccc(C(=O)Nc2nc(C(C)(C)C)cs2)cc1,100
CC(=O)N[C@@H](CC(C)C)C(=O)N[C@@H](CC(C)C)C(=O)N[C@H](C=O)CCCN=C(N)N,100
CSc1nnc(-c2ccncc2)n1Cc1ccccc1,100
CCOC(=O)c1c(NC(C)=O)sc(C)c1C,98
FC(F)(F)c1cccc(-c2nc(-c3ccncc3)no2)c1,99
CC[n+]1c(/C=C/Nc2ccccc2)sc2ccccc21,99
O=C(/C=C/c1ccco1)Nc1ccc(C(F)(F)F)cc1,92
CCCc1nc2c(o1)CC(C)(C)CC2=O,103
O=c1[nH]c2ccc(Cl)cc2c(-c2ccccc2)c1SC(=S)N1CCOCC1,100
CC(C)=CCc1c2c(c3occ(-c4ccc(O)c(O)c4)c(=O)c3c1O)C=CC(C)(C)O2,97
Cc1ccc(NC(=O)c2ccc3c(=O)n(Cc4ccco4)c(=S)[nH]c3c2)cc1Cl,100
COC(=O)C(C)NC(=O)C12CC3CC(CC(C3)C1)C2 (centres undefined),103
CSC1=NC(=O)/C(=C/c2ccccc2C(F)(F)F)S1,112
COc1ccccc1-c1cc(-c2cccs2)nc(C)c1C#N,121
SMILES,Vaccinia pol inh
CCOC(=O)Nc1ccc(Br)cc1C(NCC(=O)OC)c1ccccc1 (centres undefined),98
CCC(Sc1nnnn1-c1ccccc1)C(=O)N1c2ccccc2Sc2ccccc21 (centres undefined),96
S=C1N(CN2CCCCC2)CCN1CN1CCCCC1,100
COc1ccc(N2C(=O)CCC(C(=O)NCC3CCCO3)C2c2ccc(F)cc2)cc1 (centres undefined),98
Cc1ccc(C)c(Cn2ncc3ccccc32)c1,96
CC(=O)OCCCc1nc2ccccc2n1C(C)=O,108
O=C(O)c1cc(=O)c2ccccc2[nH]1,103
CCCN(CCC)C(=S)NC1CC2C=CC1C2 (centres undefined),101
COC(=O)c1ccc(NC(=O)COC(=O)c2cc3ccccc3o2)cc1,100
CCN(CC)c1ccc(C(=O)OCC(=O)N2CCCC2)cc1,102
Nc1ccccc1C1C(=O)CSC1=O (centres undefined),84
O=C(COC(=O)c1cc[n+]([O-])cc1)Nc1ccc(Cl)c(C(F)(F)F)c1,100
Cc1ccc(OCCn2cc(/C=C3/C(=O)Nc4cc(Cl)ccc43)c3ccccc32)cc1C,104
Nc1n[nH]c(CNC(=O)c2ccccc2)n1,96
Cn1c(=O)[nH]c2c(nc(-c3ccccc3)n2C)c1=O,94
FC(F)(F)C1(C(F)(F)F)N=C2C=CC=CN2C(c2ccccc2)=N1,108
O=C(c1cc(F)c(F)cc1Cl)N1CCN(c2ncccn2)CC1,103
Cc1cccc(NCc2c(C#N)c3ccccc3n2C)c1,100
CC(=O)Nc1cccc(-c2nn3c(C)nnc3s2)c1,93
CC1CCCN(S(=O)(=O)c2cccc3c(S(=O)(=O)N4CCCC(C)C4C)cccc23)C1C (centres undefined),94
Cc1ccc(C(=O)Nc2c3c(nn2-c2ccccc2)CSC3)cc1,100
COc1cc2c(cc1OC)C(COc1cc(C)cc(C)c1)N(C(=O)Cc1cccs1)CC2 (centres undefined),101
COc1ccc(NC(=O)Nc2ccc(OC)c(OC3CCCC3)c2)cc1OC1CCCC1,97
O=S1(=O)CCC(N(S(=O)(=O)c2ccc(F)cc2)S(=O)(=O)c2ccc(Cl)cc2)C1 (centres undefined),101
CCOC(=O)c1ccc2c(c1)C(=O)N(C1CCCCC1)C2=O,100
SMILES,Vaccinia pol inh
C=CCn1c(SCC(=O)O)nnc1-c1ccc2c(c1)OCO2,100
O=C(Nc1ccc2c(c1)ncn2C1CCCCC1)c1cc2ccccc2o1,99
O=C(CN1C(=O)C2(OCCCO2)c2ccccc21)NCCc1ccccc1,103
O=C(c1ccc2nc(N3CCOCC3)sc2c1)N1CCCC1,92
Cc1c(C(=O)N2CCC3(CC2)OCCO3)sc2nc(-c3ccccc3)cn12,89
Oc1c(C(c2ccccc2Cl)N2CCCCC2)ccc2cccnc12 (centres undefined),100
CCCC(=O)N(c1cccc(Cl)c1)C1C=CS(=O)(=O)C1 (centres undefined),104
COc1ccc(NC(=O)c2ccc(O)cc2)cc1,99
CC(C)(C)NC(=O)N1CCN(c2cc(C(F)(F)F)ccn2)CC1,78*
CCOC(=O)N1CCC(NC(=O)CSc2cc(C)nc3c(-c4ccccc4OC)c(C)nn23)CC1,99
CCCc1nc2ccccc2c(C(=O)OCC(=O)NC2CC2)c1CC,103
Cc1ccc(-n2cc(-c3ccccc3)nc2SCC(=O)NCCc2ccccc2)cc1,98
Cc1cc(F)ccc1S(=O)(=O)NCC1CC2CCC1C2 (centres undefined),100
CCN(CC)CCN=Cc1c(O)n(-c2ccccc2C)c(=O)[nH]c1=O,100
Cc1ccc(S(=O)(=O)N(CCC#N)c2ccc(Br)cc2)cc1,99
CCOC(=O)N1CCc2c(sc(NC(=O)c3ccccc3)c2C#N)C1,104
Cc1ccc(C)n1-c1ccc2ncsc2c1,101
COc1ccc2c(C=Nc3ccccc3)c(O)n(C)c(=O)c2c1,93
O=C(CCSCc1ccccc1Cl)NC1CCCCC1,107
CC(=O)Nc1nnc(-c2c(-c3c(Cl)cccc3Cl)noc2C)o1,99
NC(=O)c1ccc(CN2CCOCC2)cc1,102

# Retrieved by structure from above, six records:
SMILES,Vaccinia pol inh
COc1ccc(NC(=O)c2ccc(O)cc2)cc1,99
Cc1ccc(C)n1-c1ccc2ncsc2c1,101
O=C(Nc1ccc2c(c1)ncn2C1CCCCC1)c1cc2ccccc2o1,99
CC(=O)Nc1nnc(-c2c(-c3c(Cl)cccc3Cl)noc2C)o1,99
O=C(CCSCc1ccccc1Cl)NC1CCCCC1,107
Cc1ccc(-n2cc(-c3ccccc3)nc2SCC(=O)NCCc2ccccc2)cc1,98

# Three structures already listed, arranged by molecular weight, low to high:
SMILES,Vaccinia pol inh
COc1ccc(NC(=O)c2ccc(O)cc2)cc1,99
Cc1cc(F)ccc1S(=O)(=O)NCC1CC2CCC1C2 (centres undefined),100
O=C(CCSCc1ccccc1Cl)NC1CCCCC1,107

# In a second layout: results already given
> O=c1oc2cc(OCc3ccccc3F)ccc2c2c1CCC2
  Vaccinia pol inh: 105

> C=CCNc1nn(-c2nc3ccccc3s2)c2c1CCCC2
  Vaccinia pol inh: 97

> COc1ccc(-c2nnc3ccc(SCC(=O)N4CCCCC4)nn23)cc1
  Vaccinia pol inh: 98

> Cn1c(CN2CCCCC2)c(C#N)c2ccccc21
  Vaccinia pol inh: 102

# Some of the compounds tested; count on the stated rates, not on these rows.
